Source: PubChem BioAssay (ICCB-Longwood Screening Facility, Harvard Medical School)
MenB inh: inhibitors of Mycobacterium tuberculosis MenB enzyme; P9WNP5; MenB enzyme assay, absorbance read-out; some hits fall short of the stated cut; inhibition, %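 (about 12 µg/mL by stock and volumes)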; hit rate 0.43% among 100,000; AID 540299;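 active means mean of two replicates above 30%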;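 further: 0% = no compound and 100% = wells with inactive enzyme; the first replicate is given; strong numbers were not always called active; inactives centre near -10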
PV pol inh: poliovirus RNA polymerase inhibition; P03300; % elongation, % (compound at 16.7 µg/mL); hit rate 0.66% among 150,000; poliovirus polymerase elongation, fluorescence polarization; active compounds read low; in the data active means % elongation below about 90%; further: some results filed as inactive read as strong as hits
Target sequence (P03300 1749-2209 limits assumed): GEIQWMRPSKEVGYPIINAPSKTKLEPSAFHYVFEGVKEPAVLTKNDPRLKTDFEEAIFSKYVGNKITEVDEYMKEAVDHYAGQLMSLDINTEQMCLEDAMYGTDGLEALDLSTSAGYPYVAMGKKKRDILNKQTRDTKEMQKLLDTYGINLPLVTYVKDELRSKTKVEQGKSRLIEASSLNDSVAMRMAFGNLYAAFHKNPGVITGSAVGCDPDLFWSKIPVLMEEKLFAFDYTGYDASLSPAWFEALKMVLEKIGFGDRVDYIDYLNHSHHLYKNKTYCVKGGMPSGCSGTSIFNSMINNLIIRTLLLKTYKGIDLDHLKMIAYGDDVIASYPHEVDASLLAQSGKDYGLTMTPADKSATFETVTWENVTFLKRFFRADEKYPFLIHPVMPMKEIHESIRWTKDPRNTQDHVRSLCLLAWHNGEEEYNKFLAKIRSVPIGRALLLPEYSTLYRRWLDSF
MbtI inh: inhibitors of Mycobacterium tuberculosis siderophore enzyme MbtI | purified MbtI enzyme, fluorescence intensity read-out | inhibition, %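 (about 17 µg/mL by stock and volumes)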 | hit rate 0.89% among 100,000 | AID 493033;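 active means above 50% in both replicates, above 80% if mildly self-fluorescent; inactive means the rest, strongly fluorescent compounds included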;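 further: 0% = mean of negative and 100% = mean of positive controls; one replicate is shown; some compounds called inactive have numbers as strong as hits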
Target sequence (P9WFX0 whole entry, looked up): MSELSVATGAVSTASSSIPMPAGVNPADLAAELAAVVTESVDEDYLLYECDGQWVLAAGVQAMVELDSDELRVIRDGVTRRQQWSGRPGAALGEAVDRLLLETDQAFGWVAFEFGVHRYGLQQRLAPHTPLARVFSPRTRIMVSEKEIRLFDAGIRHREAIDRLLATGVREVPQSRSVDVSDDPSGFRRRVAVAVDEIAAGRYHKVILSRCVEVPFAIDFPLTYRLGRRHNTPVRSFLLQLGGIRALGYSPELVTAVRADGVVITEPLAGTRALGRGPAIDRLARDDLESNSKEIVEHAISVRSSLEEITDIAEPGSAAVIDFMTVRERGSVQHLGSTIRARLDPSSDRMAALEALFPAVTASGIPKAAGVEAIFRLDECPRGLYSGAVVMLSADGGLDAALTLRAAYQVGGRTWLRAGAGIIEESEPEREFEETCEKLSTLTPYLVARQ
PV pol inh intensity: further read-out of PV pol inh, marked with its call; % elongation; measured here: total intensity read-out; formula for this scale not given here;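 total fluorescence in place of polarization; lower means less elongation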
Active calls of the source: *; i = inactive; nt = not tested or not shown. Random draw from the library (roughly 1.9% active in at least one column).

SMILES	MenB inh	PV pol inh	PV pol inh intensity	MbtI inh
Cc1ccccc1-c1nc(CN2CCC(C(=O)NCCCN3CCCC(C)C3)CC2)c(C)o1 (stereo not given)	-19	99	102	0
COc1ccc(-c2csc(=NCCO)n2-c2ccccc2)cc1	9	101	104	3
CCCCCOc1ccc(O)cc1	-16	103	99	-1
O=C1CCCN2N=C(SCC(=O)Nc3nc4ccccc4s3)SC2=N1	-11	99	101	8
Cn1c(=O)c2cc(C(=O)NCc3cccs3)sc2c2ccccc21	-4	100	101	11
Cc1nn(-c2ccccc2)c(C)c1/C=C/C(=O)OCn1nnc2ccccc2c1=O	-13	101	106	8
CCOC(=O)c1cccc(NC(=O)Cc2noc3ccccc23)c1	6	102	103	-14
CS(=O)(=O)Cc1nc2ccccc2oc1=O	-69	105	102	-20
COC(=O)c1ccc(NC(=O)CCNCc2ccco2)cc1	-4	104	104	-9
NC(=O)c1ccc(NC(=O)COc2coc(CN3CCc4ccccc43)cc2=O)cc1	-1	96	95	14
Cc1oc(-c2cccc(Br)c2)nc1CN1CCC(C(=O)NCC2COc3ccccc3O2)CC1 (stereo not given)	-21	102	101	-1
CC(=O)Oc1cccc(-c2nc3cc(C)ccc3o2)c1	-81	106	102	90
CCOC(=O)/C=C1\SCC(=O)N1CCCCN1C(=O)c2ccccc2C1=O	9	109	113	-3
CCCN1CCN(C(=O)c2cn(Cc3ccccc3)nc2-c2ccccc2OC)CC1	11	100	103	4
O=C(O)C12CC3CC(C1)CC(n1cnc(Cl)n1)(C3)C2	-32	108	98	nt
CC(C)(Oc1ccc(Cl)cc1)C(=O)OCC(=O)N1CCCC1	-27	102	110	-10
N#Cc1ccc(COC(=O)C2CCCN2C2=NS(=O)(=O)c3ccccc32)cc1 (stereo not given)	2	99	107	1
NC(=O)c1cc(N)ccc1N1CCCCC1	14	108	110	nt
O=C(c1ccccc1N=Nc1c(O)[nH]c(=O)[nH]c1=O)N1CCOCC1	-267	103	99	20
O=C(NCC(c1ccc(F)cc1)N1CCOCC1)Nc1cccc(C(F)(F)F)c1 (stereo not given)	2	103	98	2
O=C1C(N2CCCCC2)=C(n2nnc3ccccc32)C(=O)c2ccccc21	-19	103	104	-6
O=C(Cc1ccccc1F)Nc1ccc(-n2cnnn2)cc1	-44	102	108	-2
CCc1nc(N2CCCCC2)c(C#N)c2c1CCCC2	3	102	107	72
CCCCc1ccc2nc3sc(C(=O)O)cc3cc2c1	-14	98	99	nt
O=C(c1ccccc1CCc1ccccc1)N1CCOCC1	-23	102	102	-12
COc1ccc(-n2c(SCC(=O)c3ccc(O)cc3O)nc3ccccc32)cc1	-54	83	154	-9
O=C(NC1CC1)C1CCN(c2nc3cccnc3s2)CC1	-14	100	100	88
NNC(=O)CNC(=O)c1cccnc1Oc1ccccc1	6	100	95	-5
COCC(=O)Nc1ccc(Cl)cc1	11	100	102	1
Clc1nc(CN2CCOCC2)nc2scc(-c3ccccc3)c12	5	97	107	13

Reformatted with bars between the fields: entries from further up
structure | MenB inh | PV pol inh | PV pol inh intensity | MbtI inh
N#Cc1ccc(COC(=O)C2CCCN2C2=NS(=O)(=O)c3ccccc32)cc1 (stereo not given) | 2 | 99 | 107 | 1
COCC(=O)Nc1ccc(Cl)cc1 | 11 | 100 | 102 | 1
NC(=O)c1cc(N)ccc1N1CCCCC1 | 14 | 108 | 110 | nt
CCc1nc(N2CCCCC2)c(C#N)c2c1CCCC2 | 3 | 102 | 107 | 72
O=C(NCC(c1ccc(F)cc1)N1CCOCC1)Nc1cccc(C(F)(F)F)c1 (stereo not given) | 2 | 103 | 98 | 2
O=C(c1ccccc1CCc1ccccc1)N1CCOCC1 | -23 | 102 | 102 | -12
COc1ccc(-n2c(SCC(=O)c3ccc(O)cc3O)nc3ccccc32)cc1 | -54 | 83 | 154 | -9

(continued)
SMILES	MenB inh	PV pol inh	PV pol inh intensity	MbtI inh
COc1cc(OC)c(C(=O)NCCCN2CCOCC2)cc1OC	-21	102	103	-42
CCOC(=O)c1cc(-c2ccco2)nn1-c1cccc(Cl)c1	nt	103	97	-2
Cc1occc1C(=O)NN1CC(=O)N(C23CC4CC(CC(C4)C2)C3)C1=O	18	102	100	0
O=C(O)C1CCCNC1 (stereo not given)	-9	103	95	-6
CC1=C(C(=O)Nc2cccc(C(=O)NC(C)C)c2)SCCO1	4	102	102	6
CNC(=S)N1CCN(c2ccccc2F)CC1	18	102	99	2
CCOC(=O)N1CCN(S(=O)(=O)c2cccc(S(C)(=O)=O)c2)CC1	-2	nt	nt	-7
Cc1noc(C)c1C(=O)NC12CC3CC(CC(C3)C1)C2	0	106	113	-5
CCN(CC)S(=O)(=O)c1ccc(Nc2c3c(nc4ccccc24)CCCC3)cc1	-17	103	105	73
CN(CC(=O)Nc1ccc(C(F)(F)F)cc1)S(=O)(=O)c1cccs1	-11	103	104	9
CCOC(=O)/C(C#N)=C/Nc1cnc(N(C)C)c(C(F)(F)F)c1	-2	103	104	183
CC(=O)OC1c2ccccc2C(=O)N1Cc1ccccc1 (stereo not given)	1	102	105	-1
O=c1[nH]c(CNCc2cccs2)nc2ccsc12	-16	99	102	18
O=C(COCc1cc(-c2ccco2)on1)Nc1cc(C(F)(F)F)ccc1Cl	-40	101	106	-9
O=C1CCC(=O)N1OCc1ccc(F)cc1	-8	102	100	-14
CC1CCN(S(=O)(=O)c2ccc3[nH]c(=O)cc(C(=O)NCCCN4CCOCC4)c3c2)CC1	-10	99	96	22
COCCn1c(=O)[nH]c2cc(C(=O)Nc3nnc(C)s3)ccc21	7	101	102	90
CCC1CCCCN1C(=O)c1cnn2c1NC(c1ccco1)CC2C(F)(F)F (stereo not given)	-18	103	103	-16
Cc1ccc(C(=O)N=c2c(=O)nc(C)n(-c3ccccc3)n2C)cc1	-11	104	101	nt
Nc1c(-c2ccccc2)nc2sccn12	81*	94	92	88*
CCn1c(-c2ccc3c(c2)OCCO3)cnc1SCC(=O)c1ccc2c(c1)CCN2S(C)(=O)=O	-18	106	105	5
Cc1ccc(NS(C)(=O)=O)c(C(=O)c2ccccc2)c1	-7	102	102	2
CCc1c(C#N)c(N)nc(SCC(=O)OCc2ccccc2)c1C#N	0	98	105	-21
N#CC(C(=O)c1ccccc1Cl)=C1SCCCS1	-7	101	98	2
CCc1ccc(NC(=O)c2noc3c2CCCC3)cc1	-34	103	101	0
COc1cc(OC)c(NC2=CC(=O)C(=O)c3ccccc32)cc1Cl	-22	100	102	11
COc1ccc2oc(=O)c(C(=O)Nc3ccc(O)cc3)cc2c1	2	100	104	4
COc1ccc(OC)c2c1sc(=NC(=O)C1CCCCC1)n2C	-16	102	109	-5
COc1ccccc1OCc1ccc(C(=O)N2CCc3ccccc3C2)o1	0	100	102	7
CCCn1c(=S)[nH]c2cc(C(=O)N3CCc4ccccc4C3)ccc2c1=O	-7	103	104	-5
CC1(C)OC(=O)C(=CNC(Cc2ccccc2)C(=O)O)C(=O)O1 (stereo not given)	-18	105	100	5
Cc1ccccc1-c1nnn(CC(=O)NC2CCCCC2)n1	nt	100	99	4
CC(=O)Nc1ccc(-c2nc3cc(C)ccc3o2)cc1	8	100	103	i
CCCN1C2=C(C(=O)CCC2)C(c2ccc(F)cc2)C2=C1c1ccccc1C2=O (stereo not given)	-17	101	103	-10
CCOc1ccc(CNC(=O)C2CCN(c3nc4ccccc4o3)CC2)cc1	5	100	101	-6
COc1ccc2c(Cl)c(-c3nnc4n3CCC4)sc2c1	9	97	93	27
CCN(CC)Cn1nc2c3c(cccc3c1=O)-c1ccccc1-2	-13	100	89	27
CCOC(=O)c1cnc(-c2ccccc2)nc1NCc1ccccc1	2	105	104	nt
Cn1cnnc1Sc1nc2ccccc2nc1Cl	-6	98	100	36
CCN(CC)c1nc(C(F)(F)F)nc2c1nnn2Cc1ccccc1	-22	99	101	-3
CCS(=O)(=O)CCc1nnc(NC(=O)Nc2cccc(C(F)(F)F)c2)s1	-10	101	95	0
CCS(=O)(=O)c1ccc(S(=O)(=O)CC)s1	-70	99	103	-6
Cc1ccc(S(=O)(=O)N2CCN(CC(=O)c3c(C)[nH]c4ccccc34)CC2)cc1	-8	101	105	-4
CN(C)S(=O)(=O)c1ccc2oc3nnc(SCCCC(=O)N4CCOCC4)n3c2c1	-17	96	95	-2
COc1ccc(/C=N/NC(C)(C)C)cc1O	0	106	110	-5
COc1ccc(-c2nn3cnnc3s2)cc1	1	100	103	9
C=CCN(C(=O)CSc1cc(=O)n(CC)c2ccccc12)c1ccccc1	-23	104	107	1
CC(=O)Oc1ccc(N2C(=O)C3C4C=CC(C(OC(C)=O)OC(C)=O)(O4)C3C2=O)cc1 (stereo not given)	-19	103	112	nt
COc1ccc2oc(-c3ccc(NC(=S)NC(=O)COc4ccccc4)cc3)nc2c1	3	97	100	-79
Cc1cc(OCc2nnc(SCC(=O)OC(C)C)o2)ccc1Cl	-21	103	103	-9
O=C(CCN1CCC(c2ccccc2)C1)c1cccs1 (stereo not given)	4	103	104	20
CC(C)CC(=O)n1nc(-c2cccnc2)nc1NCc1ccccc1	-16	103	104	-9
Cc1cc2nc3s/c(=C/c4ccc5c(c4)OCO5)c(=O)n3c2cc1C	-20	102	101	-7
O=c1oc2c(-c3cc(Cl)cc(Cl)c3)cc(O)cc2s1	nt	102	102	6
Cc1cc(Cl)ccc1OCCCC(=O)Nc1ccccc1C(F)(F)F	-28	107	113	nt
CNC[C@@H](O)c1ccc(O)c(O)c1	6	100	101	-18
Cc1csc2sc(C=NCc3cccs3)c(C)c12	10	101	110	-4
CC(Sc1nncn1C)C(=O)c1ccc(C(C)(C)C)cc1 (stereo not given)	-29	103	111	-21
CC(C)(C)c1cc(NS(=O)(=O)c2ccc3c(c2)OCCO3)on1	4	105	100	-14
Cc1c2c(n3c(nc4ccccc43)c1C#N)N(C1CCCC1)CC2	10	100	107	3
(more compounds)
SMILES	MenB inh	PV pol inh	PV pol inh intensity	MbtI inh
O=C(O)c1cccc(S(=O)(=O)N2CCc3ccccc3C2)c1	6	101	99	nt
O=C(c1ccccc1)N1CCN(CC(O)COc2ccc(Cl)cc2Cl)CC1 (stereo not given)	-14	103	96	6
O=C(CN1CC(C(=O)N2CCOCC2)Oc2ccccc21)Nc1ccccc1C(=O)NC1CCCC1 (stereo not given)	-18	114	107	-6
Cc1nn(-c2ccccc2)c(C)c1/C=C/C(=O)OCC(=O)Nc1c(C#N)oc2ccccc12	-10	98	107	-3
CCOC(=O)N1CCC(NC(=O)c2cc(S(=O)(=O)NCCc3ccccc3)ccc2F)CC1	-23	103	106	-10
Cc1ccc2c(n1)sc1c(O)cc(=O)[nH]c12	-24	103	103	112
CCOC(=O)c1c(C)[nH]c(-c2csc(C)n2)c1C	nt	102	103	-2
C=CCN(C)C1CC(=O)N(c2ccc(C)c(Cl)c2)C1=O (stereo not given)	10	99	98	95*
Cc1cc(C)nc(-n2nc(C)cc2NC(=O)CNC(C)c2ccccc2)n1 (stereo not given)	5	105	106	14
CCC(=O)NCCc1cc2c(OC)ccc(OC)c2[nH]c1=O	-14	100	103	0
COC(=O)c1ccc(COC(=O)c2n[nH]c3ccccc23)o1	6	102	97	128
Cc1cc(=O)oc2cc(OCc3nnc(-c4ccccc4)o3)ccc12	-7	104	103	47
Cc1c2c(c(C#N)c3nc4ccccc4n13)CCCC2	9	92	123	4
Cc1ccc(S(=O)(=O)Nc2ccc(Br)cc2C(NCC(=O)O)c2ccccc2)cc1 (stereo not given)	-48	103	106	-3
NC(N)=Nc1nc(-c2ccc(-c3ccccc3)cc2)cs1	-16	103	106	-326
COC(=O)c1ccccc1NC(=O)c1cc2cccnc2n(C)c1=O	-21	109	118	1
CCN1CCN(C(c2cccs2)C(C)NS(=O)(=O)c2ccc(C)cc2)CC1 (stereo not given)	-4	102	106	-6
CC(/C=C/c1ccc(Cl)cc1)=N\O	-4	98	108	158
CCCOC(=O)c1ccc(NC(=O)CO/N=C/c2nc3cc(Cl)ccc3o2)cc1	-19	nt	nt	-56
CCc1ccc(NC(=O)CSc2ncnc3c2sc2ccccc23)cc1	-7	104	109	1
CCC(Oc1ccc(Br)cc1)C(=O)Nc1nccc(C)n1 (stereo not given)	1	102	105	-10
COc1cc(C(=O)OCCCCN2C(=O)c3ccccc3C2=O)cc(OC)c1OC	-18	104	106	-6
O=S(=O)(NCC12CC3CC(CC(C3)C1)C2)c1cccc2nsnc12	-4	106	109	nt
COc1ccc(C=Nc2ccc(C)cc2C)cc1	nt	105	104	-7
NNC(=O)/C(=C\c1ccccc1)CCO	-1	99	105	-7
COc1ccc(C(CNC(=O)c2ccccc2)N(C)C)cc1 (stereo not given)	-15	103	109	-12
CCc1c(C#N)c(N)nc2sc(C(=O)Nc3ccc(Br)cc3)c(N)c12	-13	98	94	-12
O=C(CCCN1C(=O)/C(=C\c2ccco2)SC1=S)NC1CCCCC1	-9	103	107	4
Cc1nc(C)c2c(=O)cc(-c3ccccc3)[nH]c2n1	8	102	109	-20
CCOC(=O)c1cc2c(nc1N)CC(C)(C)OC2	-7	101	99	86
C=CCc1cccc(Cl)c1OCCSc1ncccn1	-22	101	103	-10

Complete entries as entered above:
O=C(CCCN1C(=O)/C(=C\c2ccco2)SC1=S)NC1CCCCC1 is listed as MenB inh = -9; PV pol inh = 103; PV pol inh intensity = 107; MbtI inh = 4
CCc1c(C#N)c(N)nc2sc(C(=O)Nc3ccc(Br)cc3)c(N)c12 is listed as MenB inh = -13; PV pol inh = 98; PV pol inh intensity = 94; MbtI inh = -12
